Arbovirus inh = arbovirus infection inhibition; arbovirus infection cell-based antiviral screen; inhibition, % at 10 µM; 200,000 tested, 0.37% active; AID 1251;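 active = inhibition from about 30%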;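 also: bluetongue infection of BSR cells; cell survival read as ATP light after 72 h; 0% = infected wells without compound and 100% = uninfected wells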
RecA intein inh = inhibitors of M. tuberculosis RecA intein splicing; cell-free RecA intein splicing, fluorescence; inhibition, %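 (about 9 µM by stock and volumes)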; 290,000 tested, 0.75% active; in the data active = inhibition above about 30%; inconclusive = no clear call, values can overlap the other calls;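 also: 0% = vehicle wells and 100% = reference inhibitor control wells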
Target sequence (P9WHJ3 whole entry, looked up): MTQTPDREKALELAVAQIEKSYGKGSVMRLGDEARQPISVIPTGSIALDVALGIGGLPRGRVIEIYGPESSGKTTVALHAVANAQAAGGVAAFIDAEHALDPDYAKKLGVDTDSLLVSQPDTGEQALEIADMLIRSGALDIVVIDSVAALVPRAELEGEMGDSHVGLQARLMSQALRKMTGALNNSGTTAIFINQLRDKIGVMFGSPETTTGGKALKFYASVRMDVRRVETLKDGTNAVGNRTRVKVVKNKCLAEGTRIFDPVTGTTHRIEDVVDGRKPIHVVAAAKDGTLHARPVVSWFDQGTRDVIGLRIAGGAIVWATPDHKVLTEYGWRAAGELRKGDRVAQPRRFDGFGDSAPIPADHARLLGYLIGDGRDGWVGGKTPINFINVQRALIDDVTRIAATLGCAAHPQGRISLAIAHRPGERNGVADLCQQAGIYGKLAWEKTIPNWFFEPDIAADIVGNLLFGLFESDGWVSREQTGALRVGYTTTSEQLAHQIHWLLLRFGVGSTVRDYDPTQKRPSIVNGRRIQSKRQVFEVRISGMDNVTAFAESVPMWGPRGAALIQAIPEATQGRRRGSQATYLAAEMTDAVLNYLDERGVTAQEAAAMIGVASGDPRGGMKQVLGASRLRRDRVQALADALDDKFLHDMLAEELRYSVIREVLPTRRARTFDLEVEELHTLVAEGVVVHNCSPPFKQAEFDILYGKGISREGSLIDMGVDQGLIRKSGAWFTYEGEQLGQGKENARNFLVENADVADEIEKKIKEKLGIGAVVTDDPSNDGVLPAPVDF
Mtb growth = M. tuberculosis H37Rv growth inhibitors, H37Rv strain (AID 1626); M. tuberculosis H37Rv growth inhibition; higher % means a stronger effect; inhibition, % at 10 µM; hits with a dose series show IC50 in µM; 220,000 tested, 0.95% active;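 active = confirmed in a dose series; inconclusive = inhibition above 80% but not taken into the dose series; inactive = below 80% or under 30% at every dose of the series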;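 also: bacteria incubated seven days before Alamar blue readout; 0% = bacteria only wells and 100% = bacteria with antibiotic wells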
YopH inh = inhibitors of Yersinia enterocolitica YopH tyrosine phosphatase. 140,000 tested, 0.16% active. fluorescence Ex485/Em525. inhibition, %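 (about 10 µM by stock and volumes)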;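 active = inhibition of 50% or more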;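 also: controls were vehicle for no effect and minimum signal wells for full effect; inactives centre near -20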
Mtb bLac sens = beta-lactam sensitization of Mtb H37Rv | inhibition, % at 25 µM | AID 434955 | 330,000 tested, 0.27% active | M. tuberculosis H37Rv growth with meropenem, percent inhibition; hits of this screen are not shown here;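 active = about 74% or more and at least 40 points above the plate without the antibiotic, then above 30% in a dose series; inconclusive = first-round hits that could not be retested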;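 also: growth measured after seven days incubation then overnight dye step; 0% = bacteria only wells and 100% = bacteria with antibiotic; twin plates without the antibiotic show which effects depend on it; some results filed as inactive read as strong as hits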
Arbovirus inh repeat = further read-out of Arbovirus inh, marked with its call; inhibition, %; measured here: 10K subset replicate screen; many hits read low in the repeat;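 first of two repeat runs on a subset; 0% = infected and 100% = uninfected wells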
The depositor's hits bear a star; ? = inconclusive; . = not tested or not shown.

Start of the data: the first 3 entries (preview)
SMILES	Arbovirus inh	RecA intein inh	Mtb growth	YopH inh	Mtb bLac sens	others
C(=C/c1ccnc2nc(SC/C=C/c3ccccc3)nn12)/c1ccccc1	-1	4.8	-1%	-24	1
Cc1csc(NC(=O)c2ccc(C)o2)n1	-8	-0.3	1%	-9	0
COc1ccc(C(=O)O/N=C(\C)c2cnccn2)cc1	3	-2.5	29%	.	8

The whole of this part, from the start:
SMILES	Arbovirus inh	RecA intein inh	Mtb growth	YopH inh	Mtb bLac sens	others
C(=C/c1ccnc2nc(SC/C=C/c3ccccc3)nn12)/c1ccccc1	-1	4.8	-1%	-24	1
Cc1csc(NC(=O)c2ccc(C)o2)n1	-8	-0.3	1%	-9	0
COc1ccc(C(=O)O/N=C(\C)c2cnccn2)cc1	3	-2.5	29%	.	8
CC(=O)N1CCN(c2ccc(NC(=O)C(C)Oc3ccc(Cl)cc3Cl)cc2)CC1 (stereo unspecified)	2	-0.9	.	5	85
NS(=O)(=O)c1cccc(NC(=O)CCS(=O)(=O)c2ccc(Cl)cc2)c1	4	-1.9	1%	.	-2
O=C(Nc1ccon1)c1ccc(Br)o1	-2	1.1	4%	5	2
COc1ccc(NC(=O)C2CCCN(S(=O)(=O)c3ccc4[nH]c(=O)ccc4c3)C2)cc1 (stereo unspecified)	.	-0.4	.	.	-2
Nc1ccc(N2CCN(c3ccc(Cl)c(Cl)c3)CC2)cc1	-35	-2.7	8%	-21	0
Cc1cc(C)cc(N(C(=O)c2cccs2)C2C=CS(=O)(=O)C2)c1 (stereo unspecified)	3	0.5	3%	.	0
CCCCc1ccc(-c2csc(/C(C#N)=C\c3ccc(C)o3)n2)cc1	4	1.9	2%	-35	12
O=CN1CCCN(Cc2nc(-c3cccc(Cl)c3)no2)CC1	3	-0.8	1%	.	1
O=C(NCc1cccnc1)C1CCCN(S(=O)(=O)c2ccc(Cl)cc2)C1 (stereo unspecified)	3	1.4	8%	38	-5
CNC(C(=O)c1ccccc1)C(OC)c1cccc([N+](=O)[O-])c1 (stereo unspecified)	.	1.0	2%	.	-2
Cc1cccc(/C=N/Nc2nncc3ccccc23)c1	4	0.6	1%	.	-4
CN(CC(=O)Nc1ccc(F)cc1)C(=O)c1cc([N+](=O)[O-])ccc1N1CCOCC1	.	-3.4	.	.	-6
O=S(=O)(NCc1ccco1)c1cnc(Cl)c(Br)c1	5	1.4	3%	2	3
Cc1c(C=C2C(=O)N(C)C(=O)N(C)C2=O)c(=O)n(-c2ccccc2)n1C	2	0.0	12%	-28	3
O=[N+]([O-])c1cc(C(F)(F)F)ccc1NC1CCN(Cc2ccccc2)CC1	.	5.5	-5%	.	61
C/C=C/C(=O)OCC(=O)Nc1cccc(F)c1	1	-0.2	1%	.	5
CCCN(/C=N/c1sc2c(c1C#N)CCCCC2)CCC	3	17	2%	-64	13
O=C(Nc1ccc2oc(-c3ccccc3F)nc2c1)c1ccccc1F	.	2.6	.	.	0
Cc1c(CNC(=O)c2cnn3c2NC(c2ccccc2)CC3C(F)(F)F)cnn1C (stereo unspecified)	0	-0.1	-9%	-44	0
CCCn1c(SCC(=O)N2CCCc3ccccc32)nnc1-c1ccco1	0	1.2	-3%	-49	21
O=C(Nc1ccc2c(c1)C(=O)NC2=O)c1ccccc1	.	-2.4	.	.	3
C=Cc1ncc(OC)c2c1[nH]c1ccccc12	.	2.8	.	.	51
CCOc1ccccc1NS(=O)(=O)c1cc2c3c(c1)C(C)C(=O)N3CCC2 (stereo unspecified)	.	-2.1	.	.	-7
CN(C)c1ccc(CNC2C3CC4CC(C3)CC2C4)cc1 (stereo unspecified)	6	-2.5	65%	-92	100
Cc1ccc(C(=O)NCCn2cc(SCC(=O)Nc3cc(C)on3)c3ccccc32)cc1	20	-0.8	2%	.	-1	Arbovirus inh repeat=12
COc1cc(NC(=S)NCCCN2CCOCC2)cc(OC)c1	2	-1.8	-1%	-1	0
O=C(CN1C(=O)/C(=C/c2cccc(Br)c2)SC1=S)NCCCN1CCOCC1	.	-2.4	.	.	-5
COc1ccc(C)cc1S(=O)(=O)N1CCCC(C(=O)N2CCOCC2)C1 (stereo unspecified)	.	-2.1	.	.	-4
NS(=O)(=O)c1cccc(NC(=O)CCSc2ccccc2Cl)c1	2	-0.1	9%	-26	?
CN(CC(=O)Nc1cccc(F)c1)C(=O)CCCNC(=O)c1ccc(Cl)cc1	.	-1.7	.	.	1
COc1cccc(CN(C(=O)/C=C/c2ccco2)C2CCS(=O)(=O)C2)c1 (stereo unspecified)	.	0.1	.	.	-2
Cc1ccccc1/C=C/C(=O)N1CCOCC1	0	-1.2	-3%	.	5
CCn1nc(C)c(CNC(=O)C2CCC(=O)N(Cc3cccc(F)c3)C2)c1C (stereo unspecified)	.	-1.5	.	.	1
CN1c2ccccc2Oc2c(c(=O)n(C)c(=O)n2C)C1c1cccc([N+](=O)[O-])c1 (stereo unspecified)	0	-0.7	2%	0	-9
O=S(=O)(NCC(c1cccnc1)N1CCOCC1)c1ccc(Cl)cc1 (stereo unspecified)	3	1.9	0%	.	-1
Nc1nc(SCc2ccccc2)c2[nH]cnc2n1	.	1.4	.	.	2
CN(C)c1ccc(CN(C(=O)COc2ccc(Br)cc2)C2CCS(=O)(=O)C2)cc1 (stereo unspecified)	13	4.6	-9%	-4	-14
N/C(=N\OC(=O)c1ccc2c(c1)OCO2)c1cccnc1	0	-1.0	13%	.	-2
CC(=O)c1c(C)[nH]c(C(=O)OCC(=O)Nc2sc3c(c2C#N)CCCC3)c1C	6	0.7	6%	-25	2
COc1ccccc1NC(=O)CCc1nc(-c2cccs2)no1	0	-2.4	.	-2	-8
CN1C(=O)N(C)c2ccc(Br)c3cccc1c23	.	-2.4	.	.	0
Cc1cc(NC(=O)C2CC(c3ccc(Cl)cc3)=NO2)no1 (stereo unspecified)	1	0.1	9%	18	3
Cc1[nH]c2ccccc2c1/C=N/Nc1cccc(C(=O)O)c1	.	-3.6	-7%	.	2
CN(CCOC(=O)CN1C(=O)c2ccccc2C1=O)C1=NS(=O)(=O)c2ccccc21	0	-0.5	3%	.	4
CS(=O)(=O)NCc1nnc2n1-c1ccc(Cl)cc1C(c1ccccc1)=NC2	2	-0.1	-2%	-15	-8
O=C(CN1C(=O)c2ccccc2S1(=O)=O)NCc1ccc(F)cc1	.	1.5	.	.	-13
C#CCN1N=C(c2ccc(C)cc2)CSC1=O	.	2.6	.	.	-3
C[n+]1c2n(c3ccccc31)N=C(c1cc(C(C)(C)C)c(O)c(C(C)(C)C)c1)CS2	-35	8.2	2.5µM*	.	99
N#CCc1ccc(C(=O)c2ccccc2F)s1	-7	2.6	11%	-13	30
CCOC(=O)N1CCC(NC(=O)c2ccc(CS(=O)c3cccc(C)c3)o2)CC1 (stereo unspecified)	.	-3.3	.	.	-1
COc1ccc2cc(-c3[nH]ncc3CN3CCCN(c4ccccc4)CC3)ccc2c1	-24	2.1	9.4µM*	.	99
CC(C)c1ccc(S(=O)(=O)N2CCN(CC(=O)c3ccc(O)c(O)c3)CC2)cc1	.	4.9	.	.	-6
CC(C)CNC(=O)c1ccccc1NC(=O)CN(c1ccc2c(c1)OCCO2)S(C)(=O)=O	4	-1.5	16%	-2	2
Cc1ccc(-n2ncc3c(=O)n(CC(=O)NC4CCCC4)cnc32)cc1C	6	-0.1	-4%	-38	1
Cc1ccc(C)c(OCC(=O)N2CCOCC2)c1	-3	-4.8	4%	-15	-4
Cc1ccc(-n2nc(C)c(C3(O)C(=O)N(C(C)C)c4ccccc43)c2N)cc1 (stereo unspecified)	-16	3.7	-4%	-24	-3
NC(=O)COC(=O)c1c2c(nc3ccccc13)CCC2	1	-1.7	1%	.	-3

Four entries drawn at random from the list so far, as already listed:
SMILES	Arbovirus inh	RecA intein inh	Mtb growth	YopH inh	Mtb bLac sens	others
CCOC(=O)N1CCC(NC(=O)c2ccc(CS(=O)c3cccc(C)c3)o2)CC1 (stereo unspecified)	.	-3.3	.	.	-1
C[n+]1c2n(c3ccccc31)N=C(c1cc(C(C)(C)C)c(O)c(C(C)(C)C)c1)CS2	-35	8.2	2.5µM*	.	99
COc1ccc2cc(-c3[nH]ncc3CN3CCCN(c4ccccc4)CC3)ccc2c1	-24	2.1	9.4µM*	.	99
Cc1cc(NC(=O)C2CC(c3ccc(Cl)cc3)=NO2)no1 (stereo unspecified)	1	0.1	9%	18	3

(more compounds)
SMILES	Arbovirus inh	RecA intein inh	Mtb growth	YopH inh	Mtb bLac sens	others
CCOC(=O)C1(Cc2cccc(OC)c2)CCN(Cc2cnc(SC)nc2)CC1	8	1.0	-1%	.	5
CC(C)NC(=O)CSc1nnc(-c2ccco2)n1N	-4	0.2	-11%	7	2
O=C(NCN1CCCCC1)c1cccnc1	5	0.6	-8%	26	0
N/C(Cc1ccc(Cl)cc1Cl)=N\OC(=O)Cc1ccccc1	2	5.9	6%	-10	6
COc1ccc(Cl)cc1NC(=O)CN1C(=O)NC2(CCCC2)C1=O	.	-1.4	.	.	-4
O=C(CN1C(=O)C2CC=CCC2C1=O)NC1=NCCS1 (stereo unspecified)	0	6.0	-21%	-14	-3
CC(C)CNC(=S)N1CCN(C)CC1	12	-1.4	-12%	-3	-7
COc1ccc(Nc2nnc(SCC(=O)N3CCCC3)s2)cc1	0	8.3	.	-8	2
CN1CCN(C(=O)C2=C[C@@H](C(C)(C)C)C[C@@H](OCc3ccc(CO)cc3)O2)CC1	-2	-0.4	-8%	.	-8
Cc1cccc(NC(=O)c2ccc(NC(=O)c3ccccc3Br)cc2)c1	.	-1.2	.	.	-9
CC(C)COc1ccc(-c2nnn(CC(=O)N3CCCC3)n2)cc1	8	-0.2	2%	1	-9
O=C1CC(N2CCCCCC2)C(=O)N1c1ccc(F)cc1 (stereo unspecified)	3	2.1	6%	.	-4
O=C(Cc1cccc2ccccc12)Nc1nc2ccccc2[nH]1	1	-5.5	?	-17	99
CCOc1cccc(C(=O)Nc2cccc(-c3nnc(-c4ccccc4)o3)c2)c1	5	4.0	-6%	4	-1	Arbovirus inh repeat=-10
Cc1ccc(NCC(=O)N/N=C/c2ccc(OC(=O)c3ccco3)cc2)cc1	-26	8.5	6%	5	1
CN(C)c1ccc(C(=O)OCC(=O)NC2CCCCCC2)cc1	21	-1.2	0%	.	4
O=C(COC(=O)c1ccco1)NCc1ccccc1Cl	-1	-2.8	-8%	.	2
O=C(N/N=C/c1cn(-c2cccs2)nc1-c1ccccc1)c1ccccc1Br	-13	12	2%	3	91
CCOc1ccc(CNS(=O)(=O)c2ccc3c(c2)CC(=O)N3C)cc1	.	0.7	.	.	-4
COc1cccc(NC(=O)Nc2nc(SC(C)(C)C)ns2)c1	.	9.3	.	.	98
CN(Cc1ccccc1)c1nc(CN2CCOCC2)nc2scc(-c3ccccc3)c12	-3	-6.4	38%	-19	2
CC(C)(C)CN1CCC(Oc2cccc(C(=O)NCCCOc3cccnc3)c2)CC1	.	-1.1	.	.	6
CCN(CC(=O)Nc1ccc(NC(C)=O)cc1)C(=O)Cc1ccccc1F	.	3.3	.	.	0
Cc1cccc(N2CCN(C(=O)CS(=O)(=O)Cc3nc(-c4ccccc4F)oc3C)CC2C)c1 (stereo unspecified)	-17	3.5	3%	-13	-1
O=C(Nc1cc(C(F)(F)F)ccc1F)C1CCCCC1	7	-5.1	-3%	-15	-17
CN=C(NC(=O)Nc1c(C)cccc1C)NC(=O)Nc1c(C)cccc1C	5	1.8	-8%	.	4
Clc1ccc(-n2nnc(-c3nccs3)n2)cc1Cl	-3	-2.6	13%	.	0
CCCCn1nc2cc(C(=O)NCc3ccc(C(F)(F)F)cc3C(F)(F)F)ccc2c1OCC	2	-0.7	-10%	-38	-1
Cc1nc(CC(=O)N2CCN(S(=O)(=O)c3ccccc3C#N)CC2)cs1	-1	0.5	8%	-62	-1
Cc1ccc(OCCC(=O)OC(C)C(=O)NC2CC2)cc1 (stereo unspecified)	.	-1.8	.	.	-3
Cc1c2ccccc2nc2c(F)c(NC(C)C)c(F)c(F)c12	-12	-21	?	-41	-4
Cc1ccc(N(Cc2ccc([N+](=O)[O-])cc2)C(=O)c2ccco2)cc1	0	8.1	-3%	-10	4
O=S(=O)(Nc1cccc2c1ccc1cccn12)c1cccs1	4	-3.7	-12%	-12	-6
CSCC(=O)Nc1nc(-c2ccc3c(c2)OCCO3)cs1	13	0.1	-5%	.	8
COc1ccc2c(c1)C(C)CC(C)(C)N2C(=O)CSc1nc2ccccc2s1 (stereo unspecified)	-15	12	.	-1	-7
O=C(CSc1ncnc2sc3c(c12)CCCC3)c1ccccc1	-7	-3.3	1%	-14	-1
Cc1ccc(-n2c(SCC(=O)NCc3ccco3)nnc2-c2cccnc2)c(C)c1	-6	4.6	-1%	-38	-3

Not all compounds are listed. The share of hits here may be higher or lower than overall.
